Ecoli rRNA inh: inhibitors of bacterial rRNA selective over humanized ribosomes. GFP signal change (wild-type ribosome), % (no concentration beside the values). E. coli WT GFP vs humanized-ribosome RFP mutants, fluorescence, 24 h; hits give low values; DMSO median 0, no signal -100. hit rate 1.6% among 350,000;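 active = significant combined selectivity score with lowered wild-type GFP, culture density cut under 30%, mutant RFP and density less affected; inactive = any of these conditions unmet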; note: one replicate is shown; some compounds called inactive have numbers as strong as hits
Ecoli rRNA inh OD600: further read-out of Ecoli rRNA inh, marked with its call; OD600 change, %; measured here: OD600 growth;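 optical density of the mix in the first replicate; 0 = DMSO median and -100 = no signal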
Ecoli rRNA inh RFP: also measured in Ecoli rRNA inh; calls as there; RFP signal change, %; measured here: RFP humanized mutant strains;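 first replicate; 0 = DMSO median and -100 = no signal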
An asterisk follows results filed as active. The list is partial (hit frequency here may not be typical).

The first three compounds, ahead of the listing:
`CO[C@@H]1CN(C)C(=O)c2ccc(NC(=O)c3nc4ccccc4s3)cc2OC[C@@H](C)N(Cc2cccnc2)C[C@H]1C` gave Ecoli rRNA inh -7, Ecoli rRNA inh OD600 -14 and Ecoli rRNA inh RFP 3.9.
Screening CC(C)C#Cc1ccc([C@H]2[C@@H](CO)N3C(=O)CN(C(=O)Cc4cccnc4)C[C@@H]23)cc1 returned Ecoli rRNA inh 2, Ecoli rRNA inh OD600 13 and Ecoli rRNA inh RFP 1.0.
Screening C/C=C/c1ccc([C@H]2[C@H](CO)N(C(C)=O)[C@H]2CN(C)S(C)(=O)=O)cc1 returned Ecoli rRNA inh 2, Ecoli rRNA inh OD600 1 and Ecoli rRNA inh RFP -1.7.

All compounds of this part (from the top)
`CO[C@@H]1CN(C)C(=O)c2ccc(NC(=O)c3nc4ccccc4s3)cc2OC[C@@H](C)N(Cc2cccnc2)C[C@H]1C` gave Ecoli rRNA inh -7, Ecoli rRNA inh OD600 -14 and Ecoli rRNA inh RFP 3.9.
Screening CC(C)C#Cc1ccc([C@H]2[C@@H](CO)N3C(=O)CN(C(=O)Cc4cccnc4)C[C@@H]23)cc1 returned Ecoli rRNA inh 2, Ecoli rRNA inh OD600 13 and Ecoli rRNA inh RFP 1.0.
Screening C/C=C/c1ccc([C@H]2[C@H](CO)N(C(C)=O)[C@H]2CN(C)S(C)(=O)=O)cc1 returned Ecoli rRNA inh 2, Ecoli rRNA inh OD600 1 and Ecoli rRNA inh RFP -1.7.
CC(=O)N1CC[C@H]2[C@@H]1c1cc(-c3ccccc3)ccc1N(C)[C@H]2CO was read as Ecoli rRNA inh 3, Ecoli rRNA inh OD600 7 and Ecoli rRNA inh RFP -0.3.
For CC[C@@H]1C/C=C\C[C@H](c2ccc(OC)cc2OC)NC(=O)[C@@H](C)CC(=O)N1 the results were Ecoli rRNA inh 1, Ecoli rRNA inh OD600 8 and Ecoli rRNA inh RFP 0.9.
O=C(c1cccc(F)c1)N1CC(=O)N2[C@H](CO)[C@@H](c3ccc(-c4ccccc4)cc3)[C@H]2C1 was read as Ecoli rRNA inh -2, Ecoli rRNA inh OD600 -13 and Ecoli rRNA inh RFP 14.
Screening N#C[C@@H]1[C@@H](c2ccccc2C2=CCCC2)[C@H](CO)N1C(=O)CN1CCOCC1 returned Ecoli rRNA inh 0, Ecoli rRNA inh OD600 1 and Ecoli rRNA inh RFP -6.3.
Screening COc1ccc2c3c(n(C)c2c1)[C@@H](CO)N(C(=O)CN1CCOCC1)CC31CCN(C)CC1 returned Ecoli rRNA inh 7, Ecoli rRNA inh OD600 7 and Ecoli rRNA inh RFP -0.5.
CCCN1C[C@@H](C)[C@H](OC)CN(C)C(=O)c2cc(NC(=O)C3CCC3)ccc2OC[C@@H]1C was read as Ecoli rRNA inh -1, Ecoli rRNA inh OD600 -1 and Ecoli rRNA inh RFP 0.1.
O=C(C[C@@H]1C[C@@H]2c3cc(NC(=O)NC4CCCC4)ccc3O[C@@H]2[C@H](CO)O1)NCc1cc(F)ccc1F was read as Ecoli rRNA inh 0, Ecoli rRNA inh OD600 0 and Ecoli rRNA inh RFP 0.9.
Screening C[C@@H]1CCCCO[C@H](CN(C)S(=O)(=O)c2cn(C)cn2)[C@H](C)CN([C@H](C)CO)C(=O)c2cc(N(C)C)ccc2O1 returned Ecoli rRNA inh 1, Ecoli rRNA inh OD600 8 and Ecoli rRNA inh RFP 2.6.
Screening CCCC#Cc1ccc2c(c1)O[C@H](CN(C)Cc1ccccc1)[C@@H](C)CN([C@@H](C)CO)S2(=O)=O returned Ecoli rRNA inh -3, Ecoli rRNA inh OD600 -2 and Ecoli rRNA inh RFP 3.2.
`CC(C)[C@@H]1CC=CC[C@H](C)Oc2ccccc2C(=O)N(C)[C@@H](Cc2ccccc2)C(=O)N1` (mixture of isomers) gave Ecoli rRNA inh -12, Ecoli rRNA inh OD600 -26 and Ecoli rRNA inh RFP -0.3.
C[C@@H]1CN([C@@H](C)CO)C(=O)CCCn2cc(nn2)CO[C@@H]1CN(C)C was read as Ecoli rRNA inh 4, Ecoli rRNA inh OD600 1 and Ecoli rRNA inh RFP -1.5.
For CCCC(=O)Nc1ccc2c(c1)C(=O)N(C)C[C@@H](OC)[C@@H](C)CN(C(=O)CC)[C@H](C)CO2 the results were Ecoli rRNA inh 0, Ecoli rRNA inh OD600 4 and Ecoli rRNA inh RFP -0.2.
C[C@@H]1CCCCO[C@@H](CN(C)C(=O)Nc2cccc3ccccc23)[C@@H](C)CN([C@H](C)CO)C(=O)c2cc(N(C)C)ccc2O1 was read as Ecoli rRNA inh 5, Ecoli rRNA inh OD600 1 and Ecoli rRNA inh RFP -1.7.
For CO[C@@H]1CC[C@H]2CCOc3ccc(C#N)cc3C(=O)N(C)C[C@H](c3ccccc3)CC(=O)N(C)C[C@H]1O2 the results were Ecoli rRNA inh 0, Ecoli rRNA inh OD600 2 and Ecoli rRNA inh RFP -1.0.
`CO[C@H]1CN(C)C(=O)c2cc(NS(C)(=O)=O)ccc2OC[C@H](C)N(Cc2cccnc2)C[C@@H]1C` gave Ecoli rRNA inh 2, Ecoli rRNA inh OD600 0 and Ecoli rRNA inh RFP -1.1.
Screening C[C@H](CO)N1C[C@H](C)[C@@H](CN(C)S(=O)(=O)c2ccccc2)Oc2c(NC(=O)c3cnccn3)cccc2C1=O returned Ecoli rRNA inh 1, Ecoli rRNA inh OD600 3 and Ecoli rRNA inh RFP 0.3.
C[C@H](CO)N1C[C@H](C)[C@@H](CN(C)Cc2ccc(-c3ccccc3)cc2)Oc2ccc(NS(=O)(=O)c3cn(C)cn3)cc2CC1=O was read as Ecoli rRNA inh 6, Ecoli rRNA inh OD600 12 and Ecoli rRNA inh RFP 0.6.
For C[C@@H]1CN([C@@H](C)CO)C(=O)CCCn2cc(nn2)CO[C@@H]1CN(C)C(=O)c1ccncc1 the results were Ecoli rRNA inh 1, Ecoli rRNA inh OD600 4 and Ecoli rRNA inh RFP -1.4.
For CNC[C@H]1OCCCC[C@H](C)Oc2ccc(NS(=O)(=O)c3ccccc3)cc2C(=O)N([C@H](C)CO)C[C@@H]1C the results were Ecoli rRNA inh 2, Ecoli rRNA inh OD600 2 and Ecoli rRNA inh RFP -1.1.
For C[C@H](CO)N1C[C@H](C)[C@H](CN(C)C(=O)Nc2ccc(C(F)(F)F)cc2)Oc2ccc(NS(=O)(=O)c3ccc(Cl)cc3)cc2C1=O the results were Ecoli rRNA inh 2, Ecoli rRNA inh OD600 -1 and Ecoli rRNA inh RFP -1.9.
CC(=O)N1[C@H](CO)[C@@H](c2ccc(-c3ccccc3)cc2)[C@H]1CNC(=O)C1CC1 was read as Ecoli rRNA inh -6, Ecoli rRNA inh OD600 0 and Ecoli rRNA inh RFP 0.9.
Screening CCC(=O)N1[C@H](CO)[C@@H](c2ccc(C3=CCCC3)cc2)[C@H]1CNC(=O)CN(C)C returned Ecoli rRNA inh 1, Ecoli rRNA inh OD600 9 and Ecoli rRNA inh RFP 1.2.
COc1ccc(-c2cnc3c(c2)C(=O)N([C@H](C)CO)C[C@@H](C)[C@@H](CN(C)S(=O)(=O)c2ccc(OC)cc2)O3)cc1 was read as Ecoli rRNA inh 4, Ecoli rRNA inh OD600 8 and Ecoli rRNA inh RFP 5.4.
Screening Cc1ccc(S(=O)(=O)Nc2ccc3c(c2)CC(=O)N([C@@H](C)CO)C[C@H](C)[C@@H](CN(C)Cc2ccc(C(=O)O)cc2)O3)cc1 returned Ecoli rRNA inh 3, Ecoli rRNA inh OD600 0 and Ecoli rRNA inh RFP -1.8.
Screening C[C@@H]1CN([C@@H](C)CO)C(=O)c2cc(-c3ccncc3)cnc2O[C@@H]1CN(C)C(=O)C1CC1 returned Ecoli rRNA inh 3, Ecoli rRNA inh OD600 17 and Ecoli rRNA inh RFP -4.0.
C[C@H](CO)N1C[C@H](C)[C@@H](CN(C)C(=O)NC2CCCCC2)Oc2c(NC(=O)Cn3cnnn3)cccc2C1=O was read as Ecoli rRNA inh 5, Ecoli rRNA inh OD600 16 and Ecoli rRNA inh RFP 1.9.
CC(C)NC(=O)Nc1ccc2c(c1)C(=O)N([C@H](C)CO)C[C@H](C)[C@H](CN(C)C(=O)C1CCCCC1)OCCCC[C@@H](C)O2 was read as Ecoli rRNA inh 4, Ecoli rRNA inh OD600 6 and Ecoli rRNA inh RFP -3.2.
For C[C@@H]1CN([C@@H](C)CO)C(=O)c2cc(NC(=O)CCC(F)(F)F)ccc2O[C@H]1CN(C)Cc1ccncc1 the results were Ecoli rRNA inh -1, Ecoli rRNA inh OD600 12 and Ecoli rRNA inh RFP 0.8.
For COc1ccc2c3c(n(C)c2c1)[C@@H](CO)N(C(=O)C1CCC1)CC31CN(Cc2cccc(F)c2)C1 the results were Ecoli rRNA inh -49, Ecoli rRNA inh OD600 -77 and Ecoli rRNA inh RFP -0.4.
For C[C@@H](O)C#Cc1ccc([C@@H]2[C@@H](CO)N3CCCCN(CC4CCOCC4)C[C@H]23)cc1 the results were Ecoli rRNA inh 6, Ecoli rRNA inh OD600 20 and Ecoli rRNA inh RFP -3.5.
For CCC(=O)Nc1ccc2c(c1)C(=O)N(C)C[C@H](OC)[C@@H](C)CN(C(=O)CN(C)C)[C@H](C)CO2 the results were Ecoli rRNA inh 2, Ecoli rRNA inh OD600 -4 and Ecoli rRNA inh RFP -0.8.
Screening CC(=O)NC[C@H]1[C@H](c2ccc(C3=CCCC3)cc2)[C@@H](CO)N1C(=O)NC(C)C returned Ecoli rRNA inh -7, Ecoli rRNA inh OD600 -5 and Ecoli rRNA inh RFP -0.4.
`CNC[C@@H]1Oc2ccc(NC(=O)Nc3c(C)noc3C)cc2CC(=O)N([C@@H](C)CO)C[C@H]1C` gave Ecoli rRNA inh 1, Ecoli rRNA inh OD600 0 and Ecoli rRNA inh RFP -0.9.

For convenience, two of the compounds above.
Screening Cc1ccc(S(=O)(=O)Nc2ccc3c(c2)CC(=O)N([C@@H](C)CO)C[C@H](C)[C@@H](CN(C)Cc2ccc(C(=O)O)cc2)O3)cc1 returned Ecoli rRNA inh 3, Ecoli rRNA inh OD600 0 and Ecoli rRNA inh RFP -1.8.
Screening C[C@@H]1CN([C@@H](C)CO)C(=O)c2cc(-c3ccncc3)cnc2O[C@@H]1CN(C)C(=O)C1CC1 returned Ecoli rRNA inh 3, Ecoli rRNA inh OD600 17 and Ecoli rRNA inh RFP -4.0.

New compounds follow.
Screening C[C@@H]1CN([C@@H](C)CO)S(=O)(=O)c2ccc(-c3cncnc3)cc2O[C@@H]1CN(C)Cc1ccc(Oc2ccccc2)cc1 returned Ecoli rRNA inh 3, Ecoli rRNA inh OD600 -1 and Ecoli rRNA inh RFP 8.8.
Screening CCS(=O)(=O)Nc1ccc2c(c1)C(=O)N(C)C[C@H](OC)[C@H](C)CN(CC1CCCC1)[C@@H](C)CO2 returned Ecoli rRNA inh 1, Ecoli rRNA inh OD600 2 and Ecoli rRNA inh RFP 0.2.
For CN1C(=O)c2cc(NC(=O)c3ccc(Cl)cc3)ccc2OC[C@H]2O[C@H](CC(=O)O)CC[C@@H]21 the results were Ecoli rRNA inh -1, Ecoli rRNA inh OD600 2 and Ecoli rRNA inh RFP -1.5.
`CO[C@@H]1CN(C)C(=O)c2cc(NC(=O)NC(C)C)ccc2OC[C@@H](C)N(Cc2cncnc2)C[C@H]1C` gave Ecoli rRNA inh 2, Ecoli rRNA inh OD600 -1 and Ecoli rRNA inh RFP 2.0.
C[C@@H](NC(=O)C[C@H]1CC[C@H]2[C@H](COc3ccc(NC(=O)C4CCOCC4)cc3C(=O)N2C)O1)c1ccccc1 was read as Ecoli rRNA inh 4, Ecoli rRNA inh OD600 -1 and Ecoli rRNA inh RFP 0.2.
Screening COc1cccc(S(=O)(=O)Nc2ccc3c(c2)OC[C@H](C)N(C(=O)Cc2cccnc2)C[C@@H](C)[C@@H](OC)CN(C)C3=O)c1 returned Ecoli rRNA inh -3, Ecoli rRNA inh OD600 -3 and Ecoli rRNA inh RFP 0.1.
For C[C@H]1CN([C@@H](C)CO)C(=O)c2ccccc2-c2ccccc2CO[C@@H]1CN(C)C(=O)c1ccccc1 the results were Ecoli rRNA inh -2, Ecoli rRNA inh OD600 10 and Ecoli rRNA inh RFP -1.5.
Screening CNC[C@H]1Oc2ccc(N)cc2CC(=O)N(C)C[C@H]1C returned Ecoli rRNA inh 0, Ecoli rRNA inh OD600 4 and Ecoli rRNA inh RFP -1.0.
For C[C@H]1CN([C@@H](C)CO)C(=O)c2cc(NC(=O)c3ccncc3)ccc2O[C@H]1CN(C)Cc1ccc2c(c1)OCO2 the results were Ecoli rRNA inh -4, Ecoli rRNA inh OD600 -2 and Ecoli rRNA inh RFP 0.6.
Screening CN1c2ccc(C#Cc3ccccc3F)cc2[C@@H]2[C@@H](CCN2C(=O)Cc2cccnc2)[C@H]1CO returned Ecoli rRNA inh -1, Ecoli rRNA inh OD600 -6 and Ecoli rRNA inh RFP 3.0.
C[C@H](CO)N1C[C@H](C)[C@@H](CN(C)Cc2ccc(Oc3ccccc3)cc2)Oc2c(NC(=O)Cc3ccccc3)cccc2C1=O was read as Ecoli rRNA inh 6, Ecoli rRNA inh OD600 1 and Ecoli rRNA inh RFP 2.8.
CN1c2ccc(-c3ccc(F)cc3)cc2[C@@H]2[C@@H](CCN2C(=O)CC2CC2)[C@H]1CO was read as Ecoli rRNA inh -23, Ecoli rRNA inh OD600 -52 and Ecoli rRNA inh RFP 19.
For CCCN1C[C@H](C)[C@@H](OC)CN(C)C(=O)c2ccc(NC(=O)CC)cc2OC[C@@H]1C the results were Ecoli rRNA inh 0, Ecoli rRNA inh OD600 -7 and Ecoli rRNA inh RFP 1.1.
